Screening results (PubChem BioAssay)
Mtb MbtI inh: blocks the Mycobacterium tuberculosis siderophore enzyme MbtI. P9WFX0. purified MbtI enzyme, fluorescence intensity read-out. inhibition, %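 (about 17 µg/mL by stock and volumes)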. 100,000 tested, 0.89% active;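 active = above 50% in both replicates, above 80% if mildly self-fluorescent; inactive = the rest, strongly fluorescent compounds included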;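 note: 0% = mean of negative and 100% = mean of positive controls; one replicate is shown; some compounds called inactive have numbers as strong as hits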
Mtb MenB inh: inhibitors of Mycobacterium tuberculosis MenB enzyme; P9WNP5; MenB enzyme assay, absorbance read-out; some hits fall short of the stated cut; inhibition, %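 (about 12 µg/mL by stock and volumes)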; 100,000 tested, 0.43% active; AID 540299;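 active = mean of two replicates above 30%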;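 note: 0% = no compound and 100% = wells with inactive enzyme; the first replicate is given; strong numbers were not always called active; inactives centre near -10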
Target sequence (P9WNP5 whole entry, looked up): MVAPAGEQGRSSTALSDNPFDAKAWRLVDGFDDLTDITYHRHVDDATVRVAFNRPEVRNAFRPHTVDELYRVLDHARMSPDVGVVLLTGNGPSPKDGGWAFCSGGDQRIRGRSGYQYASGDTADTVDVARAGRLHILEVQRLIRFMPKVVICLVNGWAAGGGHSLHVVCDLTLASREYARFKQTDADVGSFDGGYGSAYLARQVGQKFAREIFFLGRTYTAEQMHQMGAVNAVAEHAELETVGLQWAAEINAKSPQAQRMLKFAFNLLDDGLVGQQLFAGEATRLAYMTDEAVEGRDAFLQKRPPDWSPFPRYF
Polio RdRp inh: poliovirus RNA polymerase inhibition | poliovirus polymerase elongation, fluorescence polarization; active compounds read low | % elongation, % (compound at 16.7 µg/mL) | AID 588519 | P03300 | 150,000 tested, 0.66% active; in the data active = % elongation below about 90%; note: some results filed as inactive read as strong as hits
Target sequence (P03300 1749-2209 limits assumed): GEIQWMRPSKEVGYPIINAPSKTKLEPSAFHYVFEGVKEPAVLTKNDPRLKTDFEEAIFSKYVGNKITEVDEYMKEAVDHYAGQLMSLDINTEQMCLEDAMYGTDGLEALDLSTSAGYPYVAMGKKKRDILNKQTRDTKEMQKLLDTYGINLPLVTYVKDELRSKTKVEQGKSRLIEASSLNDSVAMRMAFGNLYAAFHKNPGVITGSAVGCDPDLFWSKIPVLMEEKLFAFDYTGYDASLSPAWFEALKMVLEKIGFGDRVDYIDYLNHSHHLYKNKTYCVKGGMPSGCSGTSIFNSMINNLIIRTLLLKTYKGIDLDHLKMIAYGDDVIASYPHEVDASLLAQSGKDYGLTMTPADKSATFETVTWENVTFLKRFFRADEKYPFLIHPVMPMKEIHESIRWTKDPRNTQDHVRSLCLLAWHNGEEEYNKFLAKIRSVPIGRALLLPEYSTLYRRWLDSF
Polio RdRp inh intensity: further read-out of Polio RdRp inh, marked with its call; % elongation; measured here: total intensity read-out; formula for this scale not given here;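 total fluorescence in place of polarization; lower means less elongation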
Active calls of the source: *; . = no result given.

SMILES | Mtb MbtI inh | Mtb MenB inh | Polio RdRp inh | Polio RdRp inh intensity
CN(C)c1cccc(N=Cc2c(O)n(-c3ccc(Cl)cc3)c(=O)[nH]c2=O)c1 | -3.6 | -29.1 | 100.0 | 105.0
CCCCN1CCCc2cc(CN(Cc3ccco3)C(=S)Nc3ccc(Cl)cc3OC)ccc21 | -10.6 | -46.4 | 101.0 | 109.0
COC(=O)c1cnn(C(=O)c2ccccc2)c1NC(=S)Nc1ccc(C)cc1C | -5.1 | -6.3 | 100.0 | 102.0
Oc1ccccc1Oc1c(F)c(F)nc(N2CCCC2)c1F | 22.1 | -1.1 | 104.0 | 103.0
COc1ccc(NC(=O)Nc2cccc(OC)c2)cc1 | -23.8 | -1.5 | 99.0 | 102.0
CCCCN1C(=O)C(O)(CC(=O)c2c(C)coc2C)c2cc(Br)ccc21 (configuration not stated) | 10.4 | -29.6 | 101.0 | 97.0
Cc1nn(-c2ccccc2)c2nc(-c3ccco3)cc(C(=O)O)c12 | -90.8 | -1.2 | 105.0 | 109.0
Cc1cc(C)c(/C=N/O)c(C)c1/C=N/O | 1.5 | -6.8 | 103.0 | 101.0
CSc1ccccc1C(=O)OC(C)C(=O)NC1CCCCC1 (configuration not stated) | -6.2 | 4.1 | 95.0 | 93.0
COc1ccc(N2CCN(S(=O)(=O)c3ccc4[nH]c(=O)oc4c3)CC2)cc1 | -23.4 | -9.7 | 101.0 | 102.0
CCOC(=O)c1c(N)n(Cc2ccccn2)c2nc3ccccc3nc12 | 103.0 | -91.1 | 100.0 | 104.0
O=C(NC(Sc1ncccn1)C(=O)c1ccccc1)c1ccccc1 (configuration not stated) | 7.2 | -23.1 | 103.0 | 105.0
CC(C)(C)NC(=O)c1ccccc1NC(=O)Nc1ccccc1 | -23.1 | 1.9 | 100.0 | 103.0
O=C(/C=C/c1ccc(Br)o1)OCC(=O)N1CCc2ccccc21 | 3.5 | . | 101.0 | 103.0
c1ccc(CSCc2nc3ccccc3[nH]2)cc1 | -2.2 | . | 104.0 | 106.0
CCc1ccccc1NC(=O)CSc1nnc(C)n1CC | -11.1 | 3.2 | 104.0 | 104.0
CC(=O)Nc1ccc2c(CSc3nnc(-c4ccco4)n3C)cc(=O)oc2c1 | 37.4 | -8.2 | 109.0 | 109.0
CCc1noc2c1/C(=N\O)CC(c1ccccc1)C2 (configuration not stated) | . | -10.5 | 101.0 | 106.0
Cc1noc2ncnc(N3CCC(C(N)=O)CC3)c12 | 23.9 | -28.0 | 102.0 | 99.0
CC/C(C)=N/Nc1ccc(S(=O)(=O)N(CC)CC)cn1 | 21.6 | -24.3 | 105.0 | 101.0
CCN1CCN(CCCNC(=O)c2cc3cc4ccc(Cl)cc4nc3o2)CC1 | 81.5 | -14.0 | 102.0 | 102.0
O=C(O)CSc1nccn1-c1ccc(Br)cc1 | -13.8 | -9.8 | 103.0 | 95.0
O=C(CSc1nnc(-c2c[nH]c3ccccc23)o1)NC(=O)Nc1ccccc1F | -0.7 | -9.3 | 107.0 | 111.0
CCn1c(SCCC#N)nc2cc(S(=O)(=O)N3CCCCC3)ccc21 | 2.8 | -3.3 | 103.0 | 107.0
Cc1ccc(C)c(N2CCN(CCCNC(=O)Nc3cn(CC(C)C)c(=O)c4ccccc34)CC2)c1 | -20.4 | 3.3 | 102.0 | 102.0
CCc1cc2c(cc(C(=O)OC)n2Cc2ccc(Br)cc2F)s1 | -5.8 | -20.9 | 101.0 | 104.0
Cc1ccc(S(=O)(=O)N(CCc2ccccc2)CC(=O)Nc2ccc(C(C)C)cc2)cc1 | -9.6 | -20.2 | 100.0 | 101.0
CCN(CC)/C(N)=N/c1nc(C)cc(C)n1 | -21.1 | -11.2 | 103.0 | 103.0
Cc1nc2cc(NS(=O)(=O)c3ccccc3)ccc2n1-c1ccccc1 | -12.4 | -22.6 | 104.0 | 98.0
C/C(=C\C(=O)Nc1ccc(Cl)cc1)N1CCN(Cc2ccccc2)CC1 | 9.3 | -30.3 | 102.0 | 106.0

Some of the entries above in a different format.
structure: CCN1CCN(CCCNC(=O)c2cc3cc4ccc(Cl)cc4nc3o2)CC1
  Mtb MbtI inh: 81.5 | Mtb MenB inh: -14.0 | Polio RdRp inh: 102.0 | Polio RdRp inh intensity: 102.0
structure: O=C(O)CSc1nccn1-c1ccc(Br)cc1
  Mtb MbtI inh: -13.8 | Mtb MenB inh: -9.8 | Polio RdRp inh: 103.0 | Polio RdRp inh intensity: 95.0
structure: CCc1cc2c(cc(C(=O)OC)n2Cc2ccc(Br)cc2F)s1
  Mtb MbtI inh: -5.8 | Mtb MenB inh: -20.9 | Polio RdRp inh: 101.0 | Polio RdRp inh intensity: 104.0

Next structures
SMILES | Mtb MbtI inh | Mtb MenB inh | Polio RdRp inh | Polio RdRp inh intensity
O=c1c2c(-c3ccccc3)csc2nc2n1CCCCC2 | -9.4 | -8.1 | 104.0 | 98.0
O=C(NC1CCCCC1)c1ccccc1NS(=O)(=O)c1ccc(F)c(F)c1 | 5.0 | . | 103.0 | 107.0
Clc1ccc(C2CC(C3CC3)=NN2c2ccccc2)cc1 (configuration not stated) | . | -2.4 | 101.0 | 113.0
Cc1nn(-c2ccccc2)c(N)c1N=Nc1ccc(S(=O)(=O)N2CCOCC2)cc1 | 7.8 | -110.0 | 102.0 | 102.0
O=c1c(Br)c(N2CCc3ccccc3C2)cnn1-c1ccccc1 | -6.5 | -9.1 | 107.0 | 111.0
NCC(c1ccccc1)N1CCCC1 (configuration not stated) | -0.7 | 6.5 | 105.0 | 108.0
COc1cc[n+](OC(=O)N2CCCCC2)c(C)c1 | 2.8 | -4.4 | 104.0 | 106.0
CC(NS(C)(=O)=O)C(c1cccs1)N1CCN(Cc2ccccc2)CC1 (configuration not stated) | -5.4 | -24.4 | 103.0 | 106.0
Cc1ccc2[nH]c(=O)c(CN(C(=O)c3cccs3)C3CCCCC3)cc2c1 | . | -10.6 | 100.0 | 100.0
Cc1cc(=O)oc2c(CN3CCCCC3)c(O)ccc12 | 106.4 | -18.5 | 102.0 | 101.0
C=CCNC(=O)N1CC(Oc2ccc(Cl)cc2)C1 | -0.4 | -12.6 | 105.0 | 105.0
CCOC(=O)c1cn(CC)c2cc(N3CCCC3)c(F)cc2c1=O | -2.4 | 4.0 | 104.0 | 102.0
CC1(c2ccc(OC(F)F)cc2)NC(=O)N(/N=C/c2ccncc2)C1=O (configuration not stated) | 5.8 | -33.6 | 100.0 | 105.0
O=C(Cc1coc2cc3c(cc12)CCC3)N1CCc2ccccc21 | -4.0 | -40.9 | 109.0 | 103.0
O=C(COc1ccc2c(c1)OCO2)c1ccc(F)cc1 | 3.9 | -25.6 | 102.0 | 105.0
Cc1nn(C)c(C)c1CNC(=O)NC1CCCC1 | -21.1 | 6.3 | 100.0 | 104.0
Cc1nn(-c2ccc(Cl)cc2)c2sc(C(=O)NC3CCC(O)CC3)cc12 (configuration not stated) | -2.1 | . | 100.0 | 96.0
O=C(/C=C/c1ccco1)Nc1cc(C(=O)O)cc(C(=O)O)c1 | 29.5 | -11.8 | 103.0 | 102.0
Cc1nc(C)c(-c2nnco2)cc1C(=O)NN | 1.1 | -21.7 | 105.0 | 108.0
O=C(NCc1ccc2c(c1)OCO2)C1CCN(S(=O)(=O)c2ccc(Br)s2)CC1 | 0.5 | -5.0 | 100.0 | 104.0
Oc1ccc2cc(Br)ccc2c1/C=N/n1cnnc1 | -3.5 | . | 97.0 | 101.0
CCN(CC)C(=S)Oc1c(C)c(C)nc(=S)n1CCCOC | 9.0 | -55.2 | 105.0 | 101.0
CC(C)CN1C(=O)c2cccnc2C1=O | -6.2 | 0.0 | 99.0 | 101.0
COc1ccccc1NC(=O)c1oc2ccc3c(c2c1C)C(=O)CC(C)(C)O3 | 29.1 | -6.8 | 105.0 | 103.0
Cc1cc(=O)[nH]c(-n2cc(C(=O)c3cc(F)ccc3O)cn2)n1 | 2.9 | -53.5 | 101.0 | 105.0
NNC(=O)CSCc1ccc(Cl)cc1 | . | 0.0 | 111.0 | 111.0
CNc1ccc2c(cc1=O)[C@@H](NC(C)=O)CCc1cc(OC)c(OC)c(OC)c1-2 | 6.5 | -122.4 | 100.0 | 102.0
COc1ccccc1-n1c(Cc2ccc(Cl)cc2)n[nH]c1=S | . | -23.8 | 101.0 | 107.0
COC(Cn1c(SCC(=O)c2ccccc2)nnc1-c1ccccc1)OC | 0.7 | -9.7 | 102.0 | 105.0
Nc1c(Cl)cc(Cl)c2nsnc12 | -1.8 | -32.3 | 70.0 | 178.0
CCc1oc2ccccc2c1/C=N/O | -7.3 | -0.8 | 107.0 | 101.0
c1ccc(OCCSc2nnc3sc4ccccc4n23)cc1 | -8.2 | -34.4 | 102.0 | 105.0
CCOC(=O)[C@H](CCc1ccccc1)N[C@H](C)C(=O)N1C2CCCCC2C[C@H]1C(=O)O (some centres not stated) | -11.5 | -6.2 | 101.0 | 105.0
CS(=O)(=O)NCc1ccccc1Cl | -14.1 | -2.0 | 102.0 | 104.0
Cc1ccc(-c2nc3scc(CCNS(=O)(=O)N(C)C)n3n2)cc1 | 2.9 | -1.8 | 101.0 | 100.0
Brc1cccc2c3c4n(c12)CC1COC4(CCC3)O1 (configuration not stated) | -5.8 | -12.0 | 102.0 | 104.0
CC(C)C(=O)Nc1ccccc1C(=O)OCC(=O)c1ccc2c(c1)OCCO2 | -3.5 | -8.8 | 104.0 | 109.0
COc1cccc(/C=N\NC(=O)c2n[nH]c3c2CCC3)c1 | 12.9 | -0.9 | 101.0 | 100.0
O=C(NCC(=O)N1CCc2ccccc2C1)c1cccs1 | -0.6 | -18.5 | 106.0 | 99.0
COc1ccc(-c2c(N)nc(-c3ccc(Cl)cc3)nc2SC)cc1 | -16.2 | -3.3 | 104.0 | 112.0
CC(C)(O)C(=O)N=Nc1c(O)[nH]c2ccccc12 | 6.7 | -59.6 | 101.0 | 102.0
Fc1ccc(N=Cc2ccncc2)cc1F | -2.8 | . | 103.0 | 102.0
CC(C)(C)NC(=O)CCC1COc2ccccc2O1 (configuration not stated) | -3.2 | -28.2 | 103.0 | 100.0
CCOC(=O)Nc1ccc2c(c1)N(C(=O)CNC)c1ccccc1CC2 | -6.7 | -10.9 | 100.0 | 104.0
CCN(CC)C(=S)Oc1ccc(I)cc1 | -11.3 | -11.5 | 108.0 | 109.0
NC1CCC2CCCCC2C1 (configuration not stated) | -3.8 | -22.2 | 105.0 | 99.0
NC(=O)c1oc2ccccc2c1NC(=O)C12CC3CC(CC(C3)C1)C2 | -56.9 | -20.0 | 101.0 | 104.0
Cc1[nH]c2ccccc2c1C(=O)Cn1ccsc1=N | 3.0 | 13.4 | 104.0 | 107.0
Cc1onc(-c2ccccc2)c1CN1C(=O)c2ccccc2S1(=O)=O | -3.8 | -0.2 | 105.0 | 107.0
CCc1nc(SCC(=O)O)c(C#N)cc1C | 10.4 | -40.7 | 102.0 | 102.0

The list continues.
SMILES | Mtb MbtI inh | Mtb MenB inh | Polio RdRp inh | Polio RdRp inh intensity
CC(NC(=O)CN1CCCc2ccccc21)c1ccccc1 (configuration not stated) | -2.8 | -32.2 | 104.0 | 95.0
O=C(CSc1ccccc1C(=O)N(Cc1ccncc1)Cc1cccnc1)N1CCCC1 | 3.7 | -37.9 | 111.0 | 110.0
NS(=O)(=O)c1ccc(NNC(=O)/C=C/c2cccs2)cc1 | 23.5 | 11.0 | 100.0 | 104.0
COC(=O)C(C)Sc1nnc2c3ccccc3n(Cc3ccccc3)c2n1 (configuration not stated) | 1.3 | -26.2 | 103.0 | 98.0
C=CCN(CC=C)Cn1nc(Nc2ccccc2F)sc1=S | 99.4* | 3.4 | 107.0 | 105.0
Cc1nc2cc(-c3ccccc3)nn2c(C)c1CCC(=O)N1CCc2ccccc21 | -1.2 | 2.6 | 103.0 | 98.0
Oc1c(C=NCc2ccccc2)[nH]c2ccc(Br)c(Cl)c12 | -9.0 | -24.9 | 69.0 | 194.0
COc1cc(OC)cc(C(=O)Nc2cc(C(=O)NCc3ccco3)ccc2N2CC3CC(C2)c2cccc(=O)n2C3)c1 (configuration not stated) | -14.6 | -17.2 | 104.0 | 102.0
CN1/C(=C2/SC(=S)N(c3ccccc3)C2=O)Sc2ccccc21 | 1.4 | 5.3 | 102.0 | 103.0
Cc1nnc(NCC(C)O)[nH]c1=O (configuration not stated) | 1.0 | 13.0 | 99.0 | 100.0
Cn1c(C(=O)N2CCCC2)cc2sccc21 | 7.3 | -20.1 | 103.0 | 102.0
CN(C)c1ccc(/C=C2\SC(=Nc3ccccc3)N(CCO)C2=O)cc1 | -3.2 | -25.9 | 114.0 | 180.0
O=C(CCC1CCCC1)N1CCCC(c2nc(-c3ccc(F)cc3)no2)C1 (configuration not stated) | -7.2 | -68.7 | 105.0 | 103.0
COCCN1C(=O)c2ccccc2C(C(=O)Nc2ccc(C(=O)OC)cc2)C1c1cccs1 (configuration not stated) | 2.4 | 7.1 | 102.0 | 103.0
